Compound activity (PubChem BioAssay)
KCNQ2 enhance = potentiators of rat KCNQ2 potassium channel; O88943; CHO-K1 KCNQ2, FluxOR thallium flux fluorescence; active compounds read high; B-score at 10 µM; 0.54% of 310,000 active;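 active = fluorescence ratio B-score at least 3 SD of library B-scores, with initial fluorescence B-score within 3 SD, cut at about 5.3 in these data; same plate scores as AID 2156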;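 note: B-score of peak minus minimum over baseline fluorescence ratio after K+ and Tl+ stimulus; positive B-score means potentiation of KCNQ2 with more thallium influx and brighter signal; only the inactives scoring about 0 or higher are listed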
Target sequence (O88943 whole entry, looked up): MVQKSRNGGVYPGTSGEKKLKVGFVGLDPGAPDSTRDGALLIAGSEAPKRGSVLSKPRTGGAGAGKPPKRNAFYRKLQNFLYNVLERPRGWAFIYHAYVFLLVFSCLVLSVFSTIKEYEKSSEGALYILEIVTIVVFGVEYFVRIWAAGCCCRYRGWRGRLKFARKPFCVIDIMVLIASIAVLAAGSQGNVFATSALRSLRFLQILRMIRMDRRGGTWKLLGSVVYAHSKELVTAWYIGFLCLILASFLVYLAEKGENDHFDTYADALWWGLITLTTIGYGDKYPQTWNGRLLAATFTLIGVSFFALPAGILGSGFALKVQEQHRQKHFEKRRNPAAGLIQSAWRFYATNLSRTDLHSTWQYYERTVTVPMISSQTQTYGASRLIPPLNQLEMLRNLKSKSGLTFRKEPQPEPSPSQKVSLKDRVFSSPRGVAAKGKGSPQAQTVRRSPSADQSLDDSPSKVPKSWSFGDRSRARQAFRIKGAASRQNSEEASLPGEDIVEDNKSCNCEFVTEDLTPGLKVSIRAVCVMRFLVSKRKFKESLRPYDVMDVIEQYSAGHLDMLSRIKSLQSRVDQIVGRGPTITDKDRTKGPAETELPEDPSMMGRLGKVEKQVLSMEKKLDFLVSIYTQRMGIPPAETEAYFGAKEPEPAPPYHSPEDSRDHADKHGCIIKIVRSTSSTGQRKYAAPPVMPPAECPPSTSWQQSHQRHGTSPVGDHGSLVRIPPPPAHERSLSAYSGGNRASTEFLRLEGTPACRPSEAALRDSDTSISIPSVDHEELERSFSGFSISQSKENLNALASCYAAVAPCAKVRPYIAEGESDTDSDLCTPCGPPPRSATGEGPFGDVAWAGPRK
KCNQ2 enhance baseline = also measured in KCNQ2 enhance; calls as there; B-score; compound at 10 µM; measured here: initial fluorescence intensity artifact check;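 brightness before thallium and not channel activity; 0 = typical well and far values either way flag optical interference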
Numbers without * were called inactive. Some of the compounds tested; rates above refer to the full screens.

#	SMILES	KCNQ2 enhance baseline	KCNQ2 enhance
1	COCCn1c(SCC(=O)Nc2cc(C)on2)nc2ccccc21	-1.15	0.43
2	CC(=O)c1ccc(NC(=O)C(C)n2nc(-c3ccccc3)c3cc(Cl)ccc32)cc1 (centres undefined)	0.02	0.72
3	O=C(CN(CCc1ccccc1)C(=O)CNS(=O)(=O)c1ccccc1)NCc1ccco1	-1.35	0.6
4	O=Cc1ccc(Oc2cnccn2)cc1	-0.7	0.23
5	CCOC(=O)N1CCC(NC(=O)CC(NS(=O)(=O)c2ccc(Cl)cc2)c2ccco2)CC1 (centres undefined)	0.98	0.34
6	O=C(O)c1ccccc1SCc1cn2cc(Cl)ccc2n1	-0.45	0.06
7	COc1ccc(C(=O)O)cc1S(N)(=O)=O	-0.53	1.01
8	Cc1ccccc1N1C(N)=NC(N)=NC1(C)C	0.11	0.48
9	COc1cc2c3c(c1)/C(=C1/SC(NC(C)=O)=NC1=O)C(=O)N3C(C)(C)C=C2C	-1.69	0.57
10	Cc1nnc2c(NC3CCCCC3)nc3ccccc3n12	1.57	0.1
11	CCN(CC(=O)Nc1ccc(N2CCOCC2)cc1)C(=O)COc1ccccc1OC	-2.38	2.24
12	Oc1ccc(/C=N\Nc2cc(N3CCOCC3)nc(N3CCOCC3)n2)c(O)c1	-2.43	1.88
13	COc1ccc(N(C(=O)C2CCCCC2)C2C=CS(=O)(=O)C2)c(OC)c1 (centres undefined)	-0.79	1.1
14	O=C(Nc1ccc(N2CCOCC2)c2nonc12)C1CCCC1	0.81	0.34
15	CCN(CC)C(=O)c1c(C)nc2ccccn12	2.31	1.72
16	COc1ccc(/C(N)=N/OC(=O)c2cccc([N+](=O)[O-])c2)cc1	-2.01	1.72
17	Cc1ccc(C(=O)c2c(NC(=O)CSc3nnc(N)s3)sc3c2CCCC3)cc1	-0.04	0.26
18	COc1cc2c(cc1NC(=O)CSc1nnnn1-c1ccccc1)oc1ccccc12	-0.1	0.83
19	CCn1c(O)c(C2=NCCCC2)c2ccccc21	1.76	0.79
20	COc1cc(/C=N/NC(=S)Nc2cccc(S(=O)(=O)N(C)C)c2)ccc1O	-0.76	0.11
21	CCOC(CCNC(=O)c1cc2c(=O)[nH]c3ccccc3c2s1)OCC	-0.81	1.77
22	Clc1ccccc1-c1nnc2sc(-c3ccncc3)nn12	3.76	0.91
23	CCCC(C(=O)NC1CCCC1)N(C(=O)Cn1nnc(-c2ccc(C)o2)n1)c1ccccc1OC (centres undefined)	0.42	1.21
24	CCOC(=O)N1CCN(C(=O)COC(=O)C2CCN(S(=O)(=O)c3c(C)c(C)cc(C)c3C)CC2)CC1	-0.16	3.13
25	CN1CCN(c2ccccc2NC(=O)c2ccc(N3CCCC3)c([N+](=O)[O-])c2)CC1	0.25	0.49

The listing continues.
#	SMILES	KCNQ2 enhance baseline	KCNQ2 enhance
26	CC1=C(C(=O)OCc2ccccc2)C(c2ccc(Cl)cc2Cl)NC(=O)N1CCCCCC(=O)O (centres undefined)	0.1	0.1
27	COc1ccc(COc2ccc3ccc(=O)oc3c2)cc1	-0.52	0.83
28	Cc1oc2c(c1C(=O)N1CCOCC1)C(=O)c1ccccc1C2=O	0.69	2.66
29	Cc1ccc(S(=O)(=O)NC(=NC2CCCCC2)c2ccc(Cl)cc2)cc1	-0.07	0.04
30	COc1ccccc1N1C(=O)c2ccc(C(=O)Nc3ccc(C(=O)O)cc3)cc2C1=O	-0.69	0.47
31	O=C(O)C1CC=CCC1C(=O)NNS(=O)(=O)c1ccccc1 (centres undefined)	-1.67	0.7
32	COc1cccc(C(=O)Nc2ccc(NC(=O)C(C)(C)C)cn2)c1	1.63	0.76
33	CC(C)c1ccccc1OS(N)(=O)=O	0.65	1.4
34	O=C(NC(NC(=S)Nc1ccccc1C(=O)O)C(Cl)(Cl)Cl)c1cccc([N+](=O)[O-])c1 (centres undefined)	1.51	0.59
35	CCc1ccc2c(c1)[C@H]1OCC[C@H]1[C@@H](c1cccs1)N2	-1.06	0.38
36	CCCc1nc2c(nnn2Cc2ccccc2)c(=O)[nH]1	0.02	0.85
37	Cc1noc2ncnc(N3CCN(c4ccc(F)cc4)CC3)c12	1.06	0.39
38	CCN(CCCNC(=O)Cn1ncc2c(=O)oc3ccccc3c21)c1cccc(C)c1	0	0.46
39	COC(=O)c1cc(NC(=O)C2CCCN(S(=O)(=O)c3c(C)n[nH]c3C)C2)cc(C(=O)OC)c1 (centres undefined)	0.84	1.15
40	Cc1nc2nc(SCc3ccc([N+](=O)[O-])cc3)[nH]c2cc1Br	2.82	0.84
41	CC(C)(C)c1ccc(C(=O)NNC(=O)C2CCCCC2)cc1	-0.56	1.21
42	CCOC(=O)c1[nH]c(C)c(C)c1C	-0.09	0.03
43	Cc1cccc(NC(=O)CSc2nnc(C)c(=O)n2N)c1	0.42	0.04
44	Cn1c(=O)c(-c2cccc(Cl)c2)c(O)c2ccccc21	0.87	0.18
45	O=C1N/C(=C/c2ccc(N3CCOCC3)cc2)C(=O)N1Cc1ccc(F)cc1	-0.03	1.53
46	Cn1c2c(c(=O)n(C)c1=O)CN(CC1CCCO1)CN2 (centres undefined)	1.06	1.24
47	Cc1ccc(Sc2ncccc2[N+](=O)[O-])cc1	-2.02	2.14
48	COc1cc(NC(=O)c2ccc([N+](=O)[O-])cc2)ccc1NC(=O)C(C)C	-0.37	0.2
49	[O-]C1=N/[N+](=C/c2ccc(Cl)c(Cl)c2)CC1	-0.34	0.01
50	CCOC(=O)c1sc(=NC(=O)/C=C/c2cccs2)n(C)c1C	0.28	0.3

Next section:
#	SMILES	KCNQ2 enhance baseline	KCNQ2 enhance
51	Cc1ccc(S(=O)(=O)N(C)C2(C)CCS(=O)(=O)C2)cc1 (centres undefined)	-0.82	0.12
52	Cc1ccc(-n2nc3c(c2NC(=O)CCC2CCCCC2)CS(=O)C3)cc1 (centres undefined)	0.85*	7.31*
53	Fc1ccccc1Nc1n[nH]c(=S)s1	-0.67	0.3
54	CCc1cc2c(SCC#N)ncnc2s1	-0.42	0.88
55	CCc1nnc(NC(=O)Cn2nc(-c3ccc(OC)c(OC)c3)ccc2=O)s1	-0.01	2.79
56	CC(=O)COC(=O)c1cc(-c2ccc(C)cc2)nc2ccccc12	-0.83	0.14
57	CN(C(=O)CSc1nc2cc(Cl)ccc2c(=O)n1Cc1ccco1)C1CCS(=O)(=O)C1 (centres undefined)	-0.11	0.94
58	COC(=O)CCN1CCC(c2cc(-c3cccc(C(F)(F)F)c3)n[nH]2)CC1	-0.26	1.35
59	CCCNC(=O)COC(=O)c1cc(-c2ccc(OC)cc2)nc2ccccc12	-0.97	0.17
60	CC1CCN(C(=O)c2cc(Cl)ccc2NC(=O)c2ccco2)CC1	0.57	0.7
61	CC(C)n1c(=S)[nH]c2c1c(=O)[nH]c(=O)n2C	0.38	0.39
62	Cc1cc(=O)oc2cc(OCC(=O)Nc3nnc(C(C)C)s3)ccc12	-2.27	0.36
63	CCOC(=O)c1[nH]c2cc(OC)c(OC)cc2c1NC(=O)c1nonc1C	1.02	0.39
64	COc1ccc(-c2cn(Cc3ccc([N+](=O)[O-])cc3)nn2)cc1	-0.82	1.46
65	CCOc1cc(NC(=O)C2CC2)c(OCC)cc1NC(=O)c1ccccn1	-0.92	0.38
66	O=C(CN(Cc1cccs1)C(=O)CNS(=O)(=O)c1ccc(F)cc1)NCC1CCCO1 (centres undefined)	-0.85	0.09
67	COC(=O)c1c(C)[nH]c(C)c1-c1ccccc1	0.36	1.61
68	COc1ccc(OC)c(NC(=O)C2CCC(CNc3c(N4CCC(C)CC4)c(=O)c3=O)CC2)c1 (centres undefined)	-2.19	1
69	COCCn1nnnc1C(c1ccc(OC)cc1OC)N1CCN(c2ccccc2F)CC1 (centres undefined)	-1.71	1.66
70	CCCCOCCCNC(=O)N[C@H](C(=O)OC)C(C)C	1.46	0.35
71	Cc1cc2c3c(c1C)C(=O)C(=O)N3C(C)(C)CC2C (centres undefined)	-0.04	0.21
72	Cc1cc(=O)oc2cc(OCC(=O)NCCCN3CCCC3=O)c(Cl)cc12	-0.65	0.62
73	CCn1nc(C(C)C)cc1C(=O)N1CCCC(CO)(Cc2ccc(F)cc2F)C1 (centres undefined)	-0.18	0.64
74	CCCSc1nc2c(c(=O)[nH]c(=O)n2C)n1C	-0.66	0.35
75	Cc1noc(C)c1S(=O)(=O)N1CCC(C(=O)NCCC2=CCCCC2)CC1	0.04	1.09

Remaining list, next part.
#	SMILES	KCNQ2 enhance baseline	KCNQ2 enhance
76	C[C@H](NC(=O)[C@H]1N2C(=O)c3ccccc3C2SC1(C)C)C(=O)NCC1CCCO1 (some centres undefined)	0.1	0.68
77	Cc1[nH]nc2c1C(Cc1ccccc1)C(C#N)=C(N)O2 (centres undefined)	-0.17	0.45
78	CCCCN(CC)S(=O)(=O)c1ccc(C(=O)Nc2nnc(-c3ccccc3Cl)o2)cc1	-0.03	0.23
79	c1coc(Cn2nnnc2CN2CCN(C3CCCCC3)CC2)c1	-1.01	0.66
80	O=C(NCc1ccccn1)Nc1ccccc1F	-0.03	0.96
81	FC(F)(F)c1nc(-c2cccnc2)ncc1-c1nnnn1-c1ccccc1	1.76	1.04
82	COc1c(Cl)cc(-c2noc(C)c2C(=O)NCc2ccccc2)cc1Cl	0.04	4.42
83	CN(CC(=O)Nc1ccccc1Cl)C(=O)CSc1nnc(-c2ccco2)o1	1.23	0.01
84	Cc1ccc(C(C)NC(=O)c2cccs2)cc1 (centres undefined)	-1.17	1.82
85	CCCOc1cccc(C2C(C(=O)c3cccs3)=C(O)C(=O)N2CCN2CCOCC2)c1 (centres undefined)	-0.26	0.29
86	CCCCn1c(SCC(=O)NNC(=O)c2ccco2)nnc1-c1ccco1	0.24	0.14
87	CSCCC(NS(=O)(=O)c1ccc2c(c1)oc(=O)n2C)C(=O)NCc1ccc(C)cc1 (centres undefined)	-0.66	0.45
88	COc1ccc(OC)c(NC(=O)Cn2cccc2)c1	0.18	0.04
89	O=C(Nc1ccccc1)Nc1ccc(C(=O)N2CCCC2)cc1	-0.81	0.92
90	CCc1nnc(NC(=O)C(C)C)s1	0.58	0.15
91	O=C(O)CSc1nnc(NC(=O)c2ccc3c(c2)OCO3)s1	1.33	1.6
92	CSCCC(NC(=O)c1ccc(Cl)cc1Cl)C(=O)NNC(=O)c1csc(N2CCOCC2)n1 (centres undefined)	-0.01	1.07
93	Cc1ccc(NC(=O)c2ccc(F)cc2F)cc1NS(C)(=O)=O	-0.08	0.67
94	O=c1c2[nH]c3ccccc3c2nc2n1CCCS2	-0.45	0.68
95	Cc1cccc(C(=O)N2CCc3cc(-c4nc(NC(=O)Cn5nnc6ccccc6c5=O)sc4C)ccc32)c1	0.66	1.19
96	COc1cc(C(C(=O)NC2CCCCC2)N(Cc2cccs2)C(=O)Cc2c[nH]c3ccccc23)cc(OC)c1OC (centres undefined)	-0.77	0.07
97	COC(=O)Nc1nc2c(s1)CCCC2	0.68	1.32
98	O=C(/C=C/c1ccc(S(=O)(=O)N2CCOCC2)cc1)N1CCN(c2ccc(F)cc2)CC1	-1.6	0.19
99	O=C(Nc1cccc(S(=O)(=O)NC2=NCCCCC2)c1)C1COc2ccccc2O1 (centres undefined)	-0.35	0.24
100	CCO[C@H]1OC(C(N)=O)=C[C@@H](C2CCCCC2)[C@@H]1CCCO	0.1	0.5

(more compounds)
#	SMILES	KCNQ2 enhance baseline	KCNQ2 enhance
101	COc1ccc2[nH]c(C(=O)N3CCC(CO)(Cc4cccc(C(F)(F)F)c4)CC3)c(C)c2c1	0.66	1.26
102	C/C(=N\NC(=O)c1csc2ccccc12)c1ccc(O)cc1	-0.3	2.41
103	O=C(O)c1cc(S(=O)(=O)N2CCCCCC2)ccc1Cl	0.28	0.24
104	CN(Cc1ccc(F)cc1)C(=O)COc1ccc2ccccc2c1	-0.06	0.1
105	COc1cccc2cc(NC(=O)C3CCCCC3)c(=O)oc12	0	0.75
106	O=C(Nc1ccccc1)c1cccc(S(=O)(=O)NC2CCCC2)c1	0.18	1.67
107	Cn1c(SCc2cccc([N+](=O)[O-])c2)nc2c(c1=O)SCC2	1.42	2.2
108	C=CCN1C(=O)C(C)(C)Nc2ccccc21	-0.22	0.36
109	COc1ccc(-c2c(-c3ccc(OC)cc3O)nc(C)nc2C(F)(F)F)cc1	0.37	0.57
110	COc1ccc(S(=O)(=O)NCC2CCCN(C(=O)CCSC)C2)cc1 (centres undefined)	0	0.57
111	COc1cc(C(=S)N2CCCCC2)ccc1OCC(=O)N1CCCC1	0.6	0.68
112	O=C1CC2(CON=C2c2ccc(F)cc2)C(=O)N1c1ccc(F)cc1 (centres undefined)	2.46	0.24
113	Cc1ccc(C(=O)N2CCCCC2C(=O)O)o1 (centres undefined)	-0.13	0.27
114	O=C(O)C1=C(C(=O)Nc2cccc(C(F)(F)F)c2)CCCC1	1.29	0.11
115	O=C(Nc1ccc2snnc2c1)N1CCSCC1	-0.96	0.93

Compound profiles (already shown). Order of screens: KCNQ2 enhance baseline	KCNQ2 enhance
COc1ccc(S(=O)(=O)NCC2CCCN(C(=O)CCSC)C2)cc1 (centres undefined) across the screens: 0	0.57
Cc1ccc(C(=O)N2CCCCC2C(=O)O)o1 (centres undefined) across the screens: -0.13	0.27
COc1cc(C(=S)N2CCCCC2)ccc1OCC(=O)N1CCCC1 across the screens: 0.6	0.68

Some of these compounds in order of length of the SMILES, smallest number first.
#	SMILES	KCNQ2 enhance baseline	KCNQ2 enhance
104	CN(Cc1ccc(F)cc1)C(=O)COc1ccc2ccccc2c1	-0.06	0.1
102	C/C(=N\NC(=O)c1csc2ccccc12)c1ccc(O)cc1	-0.3	2.41
111	COc1cc(C(=S)N2CCCCC2)ccc1OCC(=O)N1CCCC1	0.6	0.68
110	COc1ccc(S(=O)(=O)NCC2CCCN(C(=O)CCSC)C2)cc1 (centres undefined)	0	0.57
